Bioassay records from PubChem.
KCNQ2 pot: potentiators of rat KCNQ2 potassium channel; O88943; CHO-K1 KCNQ2, FluxOR thallium flux fluorescence; stronger effect = higher value; B-score at 10 µM; 310,000 compounds, 0.54% hits; AID 2239;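 active = fluorescence ratio B-score at least 3 SD of library B-scores, with initial fluorescence B-score within 3 SD, cut at about 5.3 in these data; same plate scores as AID 2156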;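 note: B-score of peak minus minimum over baseline fluorescence ratio after K+ and Tl+ stimulus; positive B-score means potentiation of KCNQ2 with more thallium influx and brighter signal; only the inactives scoring about 0 or higher are listed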
Target sequence (O88943 whole entry, looked up): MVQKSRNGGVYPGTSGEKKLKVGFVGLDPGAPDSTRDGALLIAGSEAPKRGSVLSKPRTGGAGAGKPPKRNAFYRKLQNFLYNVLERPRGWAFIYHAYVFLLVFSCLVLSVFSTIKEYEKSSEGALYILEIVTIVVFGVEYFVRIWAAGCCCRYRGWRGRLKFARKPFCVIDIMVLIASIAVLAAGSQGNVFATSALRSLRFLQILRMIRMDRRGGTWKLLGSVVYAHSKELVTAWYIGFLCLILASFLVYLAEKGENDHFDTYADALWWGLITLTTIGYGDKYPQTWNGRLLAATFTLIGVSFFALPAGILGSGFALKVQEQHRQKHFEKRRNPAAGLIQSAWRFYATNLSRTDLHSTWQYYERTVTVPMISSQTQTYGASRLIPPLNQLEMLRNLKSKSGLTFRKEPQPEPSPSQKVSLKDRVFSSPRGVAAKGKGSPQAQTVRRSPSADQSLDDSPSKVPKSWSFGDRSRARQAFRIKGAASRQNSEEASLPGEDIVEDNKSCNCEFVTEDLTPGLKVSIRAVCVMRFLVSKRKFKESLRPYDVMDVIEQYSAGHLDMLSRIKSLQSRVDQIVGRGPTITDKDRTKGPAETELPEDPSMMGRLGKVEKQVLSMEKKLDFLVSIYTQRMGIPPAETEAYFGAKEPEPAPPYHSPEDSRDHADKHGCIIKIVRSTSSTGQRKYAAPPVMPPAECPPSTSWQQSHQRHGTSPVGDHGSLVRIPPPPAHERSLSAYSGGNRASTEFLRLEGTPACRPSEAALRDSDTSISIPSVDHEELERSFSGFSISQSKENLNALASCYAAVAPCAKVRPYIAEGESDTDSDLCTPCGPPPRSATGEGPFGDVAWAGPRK
KCNQ2 pot baseline: further read-out of KCNQ2 pot, marked with its call; B-score; compound at 10 µM; measured here: initial fluorescence intensity artifact check;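 brightness before thallium and not channel activity; 0 = typical well and far values either way flag optical interference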
Starred values were filed as active, the others as inactive.

canonical_smiles,KCNQ2 pot,KCNQ2 pot baseline
CCOC(=O)/C=C/C(=O)Nc1ccccc1-c1ccccc1NC(=O)/C=C/C(=O)OCC,0.95,0.4
O=C(CN1C(=O)C2CC=CCC2C1=O)Nc1ccc(S(=O)(=O)N2CCOCC2)cc1 (centres undefined),1.8,0.02
CCOc1ccc(OCCSc2nc(-c3ccccc3)cc(=O)[nH]2)cc1,0.03,0.65
COC(=O)c1ccc(NC(=O)NCCCl)cc1,1.9,0.04
COc1cc(C(=O)NCCSc2ccc(Br)cc2)cc(OC)c1OC,2.3,-0.29
Cc1ccc(S(=O)(=O)NC(=O)c2cc(C)n(CC(c3ccccc3)N(C)C)c2C)cc1 (centres undefined),0.08,-0.89
COc1ccc(C2(O)C(=O)Nc3ccc(C)cc32)cc1OC (centres undefined),0.05,0.1
O=C1c2ccccc2C2(c3cc(C(F)(F)F)cc(C(F)(F)F)c3)NCCN12 (centres undefined),0.15,-2.6
O=c1oc2cc(OCc3c(F)c(F)c(F)c(F)c3F)ccc2cc1-c1ccccn1,0.28,0.36
COC(=O)C1=C(O)/C(=C\c2cc(C)n(-c3ccc(F)cc3)c2C)N=C1C,0.16,0.27
COc1ccc(N(CC(=O)Nc2ccc(C)cc2)S(=O)(=O)c2c(C)noc2C)cc1,0.96,1.3
Cc1csc2c(N3CCN(C(=S)Nc4ccc(C(F)(F)F)cc4)CC3)ncnc12,0.54,0.76
CCSc1nnc(NC(=O)c2nc(S(=O)(=O)Cc3ccc(F)cc3)ncc2Cl)s1,10*,0.31*
O=C(OCC(=O)N1CCc2ccccc2C1)c1cccs1,0.98,-1.4
C=COCCNC(=S)Nc1ccccc1,1.3,-0.79
O=C(/C=C/c1ccc(Br)cc1)NC(=S)Nc1ccc(S(=O)(=O)Nc2nccs2)cc1,0.6,-3
COc1ccc(F)cc1CSc1nnnn1-c1ccc(O)cc1,0.06,0.8
CC(=O)NC12CC3CC(C1)CC(C(=O)N1CCN(c4ncccn4)CC1)(C3)C2,1.1,0.27
CNC[C@H](O)c1cccc(O)c1,0.71,-0.66
O=C(CSc1nnc(-c2ccncc2)s1)Nc1ccccc1,0.26,1.4
CC(C)c1ccc(NC(=O)CCN2C(=O)[C@@H]3Cc4ccccc4CN3C2=O)cc1,0.72,-1.6
COc1ccc(NC(=O)CN2C(=O)C(C)Oc3ccccc32)cc1OC (centres undefined),0.37,0.25
CC1Cc2ccccc2N1C(=O)Cn1cnc2c1c(=O)n(C)c(=O)n2C (centres undefined),1.6,0.33
CN(CC1CCOCC1)C(=O)CC1C(=O)NCCN1Cc1cccc(F)c1 (centres undefined),0.08,-0.51
COc1ccc2cc(C3CC(c4ccco4)=NN3C(=O)CCC(=O)O)c(Cl)nc2c1 (centres undefined),0.63,-0.76
Cc1ccc(C(=O)N/C(=C\c2ccc3c(c2)OCO3)C(=O)N2CCOCC2)cc1,0.72,0.84
O=S(=O)(NCCN1CCOCC1)c1cccc(C(F)(F)F)c1,0.32,0.73
COc1ccc(C(=O)Nc2ccccc2NC(=O)c2ccco2)cc1OC,0.6,-2.5
CCOc1ccc(NC(=O)CN(C)CC(=O)NC2CCCc3ccccc32)cc1OCC (centres undefined),0.03,-0.75
CS(=O)(=O)Nc1ccc(C(=O)NCCSCc2ccccc2)cc1,0.3,0.02
O=C(NNC(=O)c1ccccc1C(=O)O)c1cc2ccccc2o1,0.92,0.04
Cc1cc(Cl)ccc1OC(C)c1nnc(N)s1 (centres undefined),0.02,0.03
CSc1cccc(N2CC(C(=O)NCCC3=CCCCC3)CC2=O)c1 (centres undefined),0.22,1.1
CC(NC(=O)COC(=O)c1cc([N+](=O)[O-])ccc1N1CCOCC1)c1ccccc1 (centres undefined),1.3,0.05
O=C(NCc1ccccc1)NC12CC3CC(CC(C3)C1)C2,4.2,0.01
Cc1cc(Cl)ccc1C(=O)C1CCCN(C(=O)c2snnc2C)C1 (centres undefined),0.01,-0.93
CC(=O)N1CCC(N(C(=O)Nc2c(F)cccc2F)C(C)C)CC1,0.49,-0.37
COc1ccc(-n2c(O)c(C=Nc3ccccc3)c3ccccc3c2=O)cc1OC,1.1,1.6
O=C(Cn1nnc(-c2cccs2)n1)N1CCc2ccccc2C1,0.93,0.3
COc1ccc(NC(=O)CCS(=O)(=O)c2cccc3nonc23)c(OC)c1,0.05,-0.38
CC(C)Nc1nc2c(c(=O)n(C)c(=O)n2C)n1C,1.3,0.27
COc1ccc(C(=O)NN=C(Cc2ccccc2)Cc2ccccc2)cc1OC,0.6,0.04
CCOC(=O)Cn1nc(C)c(NC(=O)COc2ccc(C)c(C)c2)c1C,0.07,-0.1
CN(C)c1ccc(NC(=S)NC(=O)/C=C/c2ccc(Cl)cc2)cc1,0.36,-0.25
Cc1ccc(C(=O)Nc2ccccc2[N+](=O)[O-])cc1S(=O)(=O)N1CCOCC1,0.92,-0.03
Cc1ccc(S(=O)(=O)N2CCN(C(=O)C3CCCO3)CC2)cc1 (centres undefined),2.5,-2.4
Cc1ccc(S(=O)(=O)N2CCC(C(=O)N3CCC(C(=O)NCc4cccnc4)CC3)CC2)cc1,1.1,-0.34
COc1cc(OC)c(NC(=O)c2ccc3c(SCC(=O)O)c4c(nc3c2)CCCC4)cc1Cl,1,-0.01
CC(C)Cc1ccc(C(C)C(=O)Nc2ccccc2O)cc1 (centres undefined),3.1,-0.04
O=C1c2ccccc2C(=O)N1Cc1cc(-c2ccccc2)no1,0.12,0.56
OCC1OC(n2cnc3c(NC4CCCC4)ncnc32)C(O)C1O (centres undefined),0.5,-1
CCCCn1c(O)c(/C=C2\C=NN=C2c2ccccc2)sc1=S,0.68,1.4
CC(=O)N(Cc1ccco1)C1(C(=O)NC2CCCC2)CCCCC1,0.03,-0.3
COc1ccc(C(=O)Nc2sc3c(c2C#N)CCN(C(C)=O)C3)cc1,0.83,0.2
COc1ccc(CCN(Cc2cc3ccc(C)cc3n3nnnc23)C(C)=O)cc1OC,0.38,-0.73
CCSC1=C(C#N)C(c2ccc(Cl)cc2)C2=C(CCCC2=O)N1 (centres undefined),2.7,-2.5
CC(C)(CO)N=Cc1c(O)[nH]c2ccccc12,0.49,1.3
CCOC(=O)c1[nH]nc(C(=O)c2ccc(Br)cc2)c1O,0.86,-0.24
CCOc1ccc(NC(=O)C2CC(=O)OC2c2ccccc2)cc1 (centres undefined),0.5,-2.3
Cc1ccc(NC(=O)CSc2ncccn2)cc1F,0.4,-0.34

4 compounds already listed, sorted by the number in KCNQ2 pot, ascending.
| Molecule | KCNQ2 pot |
| --- | --- |
| CCOC(=O)Cn1nc(C)c(NC(=O)COc2ccc(C)c(C)c2)c1C | 0.07 |
| CCOC(=O)c1[nH]nc(C(=O)c2ccc(Br)cc2)c1O | 0.86 |
| CC(C)Nc1nc2c(c(=O)n(C)c(=O)n2C)n1C | 1.3 |
| O=C(NCc1ccccc1)NC12CC3CC(CC(C3)C1)C2 | 4.2 |

(further entries)
canonical_smiles,KCNQ2 pot,KCNQ2 pot baseline
Cc1ccc(NC(=S)NNC(=O)Cn2nc([N+](=O)[O-])cc2C)cc1,0.75,0.92
O=C(O)c1nn2c(c1Br)NC(c1ccccc1)CC2C(F)(F)F (centres undefined),0.72,1.5
O=C(COC(=O)C1(c2ccc(Cl)cc2)CCCC1)NC1CCS(=O)(=O)C1 (centres undefined),1.1,-0.71
Cc1nn(C(C)C(=O)NCc2cccs2)c(C)c1[N+](=O)[O-] (centres undefined),0.72,0.3
Cc1ccc(S(=O)(=O)Nc2ccccc2F)cc1C(=O)OC(C)C(=O)N1CCOCC1 (centres undefined),0.67,-2.1
O=S(=O)(Nc1ccc(Cl)cc1)c1cccc2nsnc12,0.85,-1.4
Cc1ccc(C2C(C(=O)c3sc(C)nc3C)=C(O)C(=O)N2CCN2CCOCC2)o1 (centres undefined),1.3,-1.6
Cc1cc(NC(=O)COC(=O)C2CC(=O)N(c3cccc(C)c3C)C2)no1 (centres undefined),1.8,1
CCOc1ccc(NC(=O)C(CC(=O)O)Cc2ccc(C)cc2)cc1 (centres undefined),0.18,0.06
O=C(NCC1CCCO1)c1ccc(NC(=O)c2cccc([N+](=O)[O-])c2)cc1 (centres undefined),0.67,-0.46
CCOc1ccc(-c2nnc(NC3=NCCCCC3)o2)cc1,0.46,-2.1
Cc1ncc([N+](=O)[O-])n1Cc1ccc(Br)cc1,0.19,-2.9
O=C1C2C(c3ccccc3)C=CC(c3ccccc3)C2C(=O)N1c1cccnc1 (centres undefined),0.63,2.1
COCCN(C(=O)CSCc1ccccc1)c1c(N)n(Cc2ccccc2)c(=O)[nH]c1=O,0.5,-0.36
Cc1cc(NC(=O)CCC(=O)N(CC(=O)NC2CCCC2)c2cccc(F)c2)no1,0.01,1.8
Cc1ccc(-n2c(-c3ccncc3)n[nH]c2=S)cc1,0.02,0.21
CCN(CC)C(=O)n1nc(C)c(CN2C(=O)c3ccccc3C2=O)c1C,2.6,-2.7
CC(NC(=O)C(=O)N/N=C\c1cccc([N+](=O)[O-])c1)c1ccccc1 (centres undefined),1.1,0.51
CC1Oc2ccccc2N(CC(=O)Nc2ccc3c(c2)OCO3)C1=O (centres undefined),1.2,0.47
COc1ccccc1NC(=O)CC1Nc2ccccc2NC1=O (centres undefined),0.24,-0.05
CCCc1nc(Nc2nc3ccccc3o2)nc(C)c1C(=O)OCC,0.03,-0.39
COCCOC(=O)c1c(C)n(C)c2ccc(OC(=O)c3ccccc3OC)cc12,0.36,0.89
CCOC(=O)Nc1ccc(=O)n(Cc2c(Cl)cccc2Cl)c1,1.4,-0.26
CN1CCN(C(=O)/C(=C\c2cccs2)NC(=O)c2ccccc2)CC1,0.04,-0.74
O=C(CN1C(=O)CSCC1=O)NCc1ccc(F)cc1,0.83,-0.55
O=C(Nn1c(COc2ccccc2)nc2ccccc2c1=O)C(Cl)(Cl)Cl,0.05,-1.1
COc1ccc(OC)c(NC(=O)NCCc2cccc(Cl)c2)c1,0.74,0.02
O=C(N/N=C/c1ccc(O)cc1)c1cc(C23CC4CC(CC(C4)C2)C3)[nH]n1,0.98,0.22
CCCc1cc(NCC2CCCO2)n2c(nc3ccccc32)c1C#N (centres undefined),0.09,-0.98
COc1cccc(NC(=S)N(CCN2CCCCC2)Cc2ccco2)c1,1.9,-0.6

Compound profiles, from the list above.
Shown for Cc1csc2c(N3CCN(C(=S)Nc4ccc(C(F)(F)F)cc4)CC3)ncnc12 → KCNQ2 pot = 0.54; KCNQ2 pot baseline = 0.76
Shown for CCCc1nc(Nc2nc3ccccc3o2)nc(C)c1C(=O)OCC → KCNQ2 pot = 0.03; KCNQ2 pot baseline = -0.39

Arranged by count of non-hydrogen atoms (ascending): part of the list above
canonical_smiles,KCNQ2 pot,KCNQ2 pot baseline
Cc1ccc(-n2c(-c3ccncc3)n[nH]c2=S)cc1,0.02,0.21
CCOc1ccc(-c2nnc(NC3=NCCCCC3)o2)cc1,0.46,-2.1
Cc1ccc(NC(=S)NNC(=O)Cn2nc([N+](=O)[O-])cc2C)cc1,0.75,0.92
CCCc1nc(Nc2nc3ccccc3o2)nc(C)c1C(=O)OCC,0.03,-0.39
Cc1cc(NC(=O)COC(=O)C2CC(=O)N(c3cccc(C)c3C)C2)no1 (centres undefined),1.8,1
Cc1cc(NC(=O)CCC(=O)N(CC(=O)NC2CCCC2)c2cccc(F)c2)no1,0.01,1.8

Other entries.
canonical_smiles,KCNQ2 pot,KCNQ2 pot baseline
COc1cc(C(F)(F)F)c(C(=O)N(C)Cc2cccc(Cl)c2)cn1,0.65,-1.1
O=C(NCc1ccccn1)c1ccc(OC2CCN(Cc3ccc(F)cc3F)CC2)cc1,0.1,0.02
Cc1ccc(C(=O)NCCc2nnc3ccc(NCCCN4CCOCC4)nn23)cc1,0.56,0.72
COCc1cc(C)nc(OCC(=O)N/N=C/c2cc(C)n(-c3c(C)cccc3C)c2C)c1C#N,0.29,-1.7
O=C(OC(C(=O)NC1CCCCC1)c1ccc(C(F)(F)F)cc1)c1ccco1 (centres undefined),1.1,0.04
Nn1c(SCC(=O)N2CCCCCC2)nnc1-c1ccncc1,1.2,-0.76
COc1cccc(-c2nc(-c3ccncc3)no2)c1,0.1,-1.7
CCC(C)NC(=O)NC(=O)CSc1nnc(-c2ccccc2F)n1C1CC1 (centres undefined),0.59,0.76
CC(C)(CNc1ccc([N+](=O)[O-])cc1C#N)N1CCOCC1,1.4,0.97
O=C(CN1C(=O)NC(Cc2ccccc2)C1=O)Nc1ccc(OC(F)F)cc1 (centres undefined),1.7,-0.21
CN(C)/C=C1\N=C(c2cccnc2Oc2ccc(Cl)cc2)OC1=O,0.77,1.4
COc1ccc(S(=O)(=O)N=Nc2c(O)[nH]c3ccccc23)cc1,0.74,1.5
O=C(N/N=C/C(Br)=C/c1ccccc1)c1cnccn1,1.7,-0.66
CCOC(=O)c1ccc(NC(=O)CCc2nc(-c3cccc(C)c3)no2)cc1,1.4,-0.58
COc1ccc(C(C)NC(=O)c2ccc(Cl)cc2)cc1OC (centres undefined),0.28,0.8
CCN(CC)C(=O)C(=O)c1cccn1-c1ccccc1C#N,0.03,-1.8
CC(=O)Nc1ccc(C(=O)OCc2ccccc2Cl)cc1,1.8,0.93
COCCSc1ccccc1C(=O)NCc1ccco1,0.53,1.8
CCCOc1ccc(N2C(=O)CC(SC(=NCC)Nc3cccc(F)c3)C2=O)cc1 (centres undefined),0.12,1.1
Cc1cc(C)nc(NS(=O)(=O)c2ccc(NC(=O)c3ccc(S(=O)(=O)N(C)C)cc3)cc2)n1,0.88,-0.95
CC(C)CN(C(=O)CC1OC(=O)c2ccccc21)c1c(N)n(Cc2ccccc2)c(=O)[nH]c1=O (centres undefined),0.82,0

An excerpt (hit frequency here may not be typical).
